Compound activity from PubChem BioAssay.
H5N1 CPE – MDCK cell protection from H5N1 avian flu; AID 740, 2007; inhibition, % at 50 µM; 96,000 tested, 0.07% active; cytopathic effect, luminescence, 72 h; stronger effect = higher value; no value below 0 was filed and about half of the inactive calls have no number; reference of the scale not given here; in the data active = inhibition above about 25%
An asterisk follows results filed as active; i = inactive. These rows are one share of the data, so the mix of outcomes need not match the whole.

compound | H5N1 CPE
CN1CCN(c2c(F)cc3c(=O)c(C(=O)O)cn4c3c2SCC4)CC1 | 6.3
O=C(NCCN1CCOCC1)c1ccc(Cl)cc1 | 0.9
COc1ccc(S(=O)(=O)Nc2nnc(CC(C)C)s2)cc1 | 0.2
COc1cc(NC(=O)c2cc(C3CC3)on2)c(OC)cc1Cl | i
CCCc1cc(C(N)=S)ccn1 | 0.6
COc1ccc(Sc2ccc(NC(=O)c3ccccc3Cl)cc2C#N)cc1 | i
COc1cc(C(=O)NCCCCCC(=O)O)cc(OC)c1OC | 0.2
CCOC(=O)Nc1ccc2c(c1)N(C(=O)CCN1CCOCC1)c1ccccc1S2 | i
